GIV-Gai inh: inhibitors of GIV peptide binding to Galpha-i3, primary screen, biochemical, fluorescence polarization, FITC-GIV GBA peptide, rat Galphai3 | AID 1224905, 2016 | actives 0.42% (n = 210,000) | 90 min; active compounds read low; scaled: aluminum fluoride 0%, vehicle 100% | Guanine nucleotide-binding protein G(i) subunit alpha-3 (Rattus norvegicus), P08753 | percent of control (FP), % (concentration not given with the values);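 active = replicate mean at 85% of control or lower, very high polarization wells dropped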;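 note: wells of about 15 µL received 100 nL stock; the first replicate is given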
Target sequence (P08753 whole entry, looked up): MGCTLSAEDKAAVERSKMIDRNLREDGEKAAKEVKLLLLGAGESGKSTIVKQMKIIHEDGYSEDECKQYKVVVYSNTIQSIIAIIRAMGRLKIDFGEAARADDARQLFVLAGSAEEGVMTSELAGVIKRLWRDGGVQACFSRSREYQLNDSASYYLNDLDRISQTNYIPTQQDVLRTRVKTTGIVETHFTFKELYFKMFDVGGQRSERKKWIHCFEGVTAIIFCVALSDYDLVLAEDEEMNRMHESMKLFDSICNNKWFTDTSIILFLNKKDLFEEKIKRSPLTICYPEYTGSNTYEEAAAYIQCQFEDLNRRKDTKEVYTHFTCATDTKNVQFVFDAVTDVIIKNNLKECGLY
Sa growth 42C: S. aureus growth inhibition at 42 and 30 °C, primary screen, LtaS inhibitor project, RN4220, two temperatures; OD600, 20 h, 42 °C; active compounds read low; relative growth, % (concentration not given with the values); actives 0.53% (n = 170,000); AID 720641, 2013;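 active = growth at 42 °C up to 50% and 20 or more points under that at 30 °C, or under 10% at both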;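 note: 300 nL library stock went into each well; scaled to the means of positive and negative controls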
HCMV NEC inh: inhibitors of HCMV UL50-UL53 interaction, biochemical, HTRF; actives 0.15% (n = 190,000); inhibition, % (concentration not given with the values); normalized percent inhibition;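 active = both replicates at 50% or more, plus weaker picks with an unusually low signal ratio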;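 note: stock transfer was 100 nL into about 20 µL; 0% = negative control wells and 100% = wells with untagged competitor protein; inactives centre near -12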
Sa growth 42C second temp: second read-out of Sa growth 42C, no call of its own (marks repeat the call); relative growth, %; measured here: growth at 30 °C;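 optical density after 20 h as mean of two plates; 100% = untreated growth and lower means inhibition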
Starred values were filed as active, the others as inactive; x = not tested or not shown; & = joins results of further samples. Not a hit list; 0.82% or so of the library scored in one or more.

item | Structure | GIV-Gai inh | Sa growth 42C | Sa growth 42C second temp | HCMV NEC inh
1 | CCOC(=O)c1cccc(N2Cc3ccncc3C2=O)c1 | 108.5 | 114.7 | 90.9 | -2.4
2 | Cc1ccc(NS(=O)(=O)c2ccc3oc(=O)c4ncn(C)c4c3c2)cc1C | 102.6&98.2 | 107.9 | 90.2 | -4.4&12.0
3 | CCCSc1nc2c(cnn2-c2ccc(F)cc2)c(=O)[nH]1 | 106.6 | x | x | 13.8
4 | CC1CC(Nc2ccccc2)c2ccccc2N1C(=O)c1ccco1 (centres undefined) | x | 75.6 | 94.9 | -2.3
5 | N=C(N)SCc1csc(N)n1 | x | 88.5 | 80.1 | -6.6
6 | CCc1nnc(C(=O)Nc2cccc(C(=O)N3CCN(c4ccccn4)CC3)c2)s1 | 108.7 | x | x | -14.4
7 | Cn1c(=O)n(-c2ccc(F)cc2)c2nc(-c3cc(Br)ccc3F)nc(C(N)=O)c21 | 101.9 | x | x | -12.3
8 | COc1cc2c(cc1OC)CN(C(=O)c1ccc(Cl)c(S(=O)(=O)NCc3ccco3)c1)CC2 | x | 119.3 | 91.4 | 4.9
9 | NC(=O)CSc1nc(N)cc(=O)[nH]1 | 101.0 | 93.7 | 85.1 | -4.5
10 | O=C(CCC(=O)N1CCc2ccccc21)Nc1ccc(I)cc1 | 110.9 | 103.7 | 79.4 | -2.6
11 | Cc1c(C(=O)N(C)Cc2ccccc2)sc2ncnc(N3CCN(c4ccccn4)CC3)c12 | 105.7 | x | x | -1.8
12 | Oc1c(C(Nc2ccccn2)c2ccccc2F)ccc2cccnc12 (centres undefined) | 100.7 | 17.1 | 12.6 | x
13 | COc1ccc(-n2nc(C(=O)NCCCN3CCCC3=O)c3c4ccccc4n(C)c3c2=O)cc1Cl | 112.1 | 95.2 | 94.1 | 18.3
14 | c1ccc(-c2cnsc2-c2ccccc2)cc1 | 108.2 | 105.3 | 94.2 | -13.1
15 | COc1ccc2nc3sc(C(=O)N4CCCC4)cc3cc2c1 | 103.7 | 109.2 | 96.1 | x
16 | CCN(CC)c1ccc(C2C3=C(CC(C)(C)CC3=O)OC3=C2C(=O)CC(C)(C)C3)c(O)c1 | 123.7 | x | x | -1.7
17 | O=C(Cn1c(=O)n(-c2ccccc2Cl)c(=O)c2sc3ccccc3c21)NC1CCCCC1 | 107.1 | 94.3 | 94.8 | 10.1
18 | COc1ccccc1C1(CC#N)CCOC(C)(C)C1 (centres undefined) | 99.4 | 101.8 | 79.5 | x
19 | CCOC(=O)C(CC)Sc1ncnc2c1c(-c1ccccc1)cn2-c1ccc(OC)cc1 (centres undefined) | 106.5 | 106.9 | 93.0 | -15.9
20 | COc1cc(Cl)c(C)cc1NC(=O)CSc1nc2c(c(=O)[nH]1)CCC2 | 104.1 | 102.9 | 90.1 | -12.9
21 | O=C(NC1CCCC1)c1cccc(S(=O)(=O)Nc2ccccc2F)c1 | x | 105.8 | 81.9 | -26.5
22 | CCn1c(SCC(=O)N2CCc3ccccc32)nc2cc(S(=O)(=O)N3CCCCC3)ccc21 | x | 90.0 | 94.0 | -11.8
23 | CCn1c(=O)c(SCC(=O)NCc2ccccn2)nc2ccccc21 | 114.4 | x | x | -32.0
24 | CCN1C(=O)CS/C1=C(/C#N)C(N)=O | x | 101.8 | 81.2 | -34.4
25 | O=S(=O)(Nn1cnnc1)c1ccccc1 | x | 99.0 | 92.2 | -2.0

Following part:
item | Structure | GIV-Gai inh | Sa growth 42C | Sa growth 42C second temp | HCMV NEC inh
26 | Cc1ccc(C(=O)c2sc3[nH]c(=O)c(C(=O)O)cc3c2N)cc1 | 103.1 | 92.1 | 91.2 | -71.7
27 | COc1ccc(C(=O)COC(=O)c2cccc(-n3cnnn3)c2)c(OC)c1 | x | 83.8 | 88.7 | -26.4
28 | COCCNC(=O)CCCN1C(=O)CCn2nc(-c3cccn3C)cc21 | 104.0 | 78.6 | 90.9 | x
29 | O=[N+]([O-])c1cccc(N=Cc2sc3ccccc3c2O)c1 | 106.8 | x | x | -24.4
30 | Cc1ccc(C(=O)c2cnc3cc4c(cc3c2S(=O)(=O)c2ccccc2)OCO4)cc1C | 103.3 | 80.7 | 87.8 | x
31 | CCc1c(C)c2ccc(O)c(CN3CCN(c4ccc(F)cc4)CC3)c2oc1=O | 101.0 | 102.3 | 83.5 | -19.5
32 | CCCC(CCC)n1[nH]c(=O)c2c(C)cc(C)nc21 | 99.3 | 122.6 | 84.3 | -9.5
33 | Cc1ccc(-c2nc(C(=O)N3CCN(Cc4ccccc4)CC3)c3n2CCCCC3)cc1 | 100.1 | 112.2 | 86.0 | x
34 | COC(=C(C#N)C#N)c1c(-c2ccccc2Cl)noc1C | 101.0 | 98.0 | 80.4 | -22.5
35 | COc1ccc(C2Nc3ccccc3-n3cc4c(=O)n(C)c(=O)n(C)c4c32)c(OC)c1 (centres undefined) | 102.0 | x | x | -8.7
36 | CCS(=O)(=O)N1CCC(C(=O)NCCCN2CCN(c3ccccc3F)CC2)CC1 | 101.6 | 135.2 | 82.8 | x
37 | CSC(SC)=C(C#N)S(C)(=O)=O | 102.1 | 93.8 | 94.5 | -5.3
38 | COc1ccccc1N1CCN(c2csc3ccccc3c2=O)CC1 | 100.5 | 92.8 | 84.1 | x
39 | O=C(O)Cn1c(SCCOc2ccc(Cl)cc2)nc2ccccc21 | 102.0 | x | x | -0.4
40 | COc1cccc2c1Oc1ncccc1N(C(=O)CCC(=O)NC(C)C)C2 | 104.3 | 91.0 | 84.6 | x
41 | CCC(C)NC(=O)c1ccc(Cn2c(=O)c(C)nc3ccccc32)cc1 (centres undefined) | 108.6 | x | x | -36.5
42 | COC(=O)CSc1nc(N2CCOCC2)nc(N2CCOCC2)n1 | 106.6 | 97.9 | 74.9 | 5.6
43 | Cc1ccc(C(=O)ONc2ccc(N=O)cc2)cc1 | 99.0 | 133.4 | 15.8 | -29.9
44 | Cc1cc(Cl)nc(Cl)c1C(=O)NC(=O)NCc1ccccc1 | x | 99.5 | 83.0 | -4.0
45 | O=C(CS(=O)(=O)c1cccc2nsnc12)NCc1ccc(Cl)cc1 | 109.4 | 98.7 | 93.7 | x
46 | COc1ccc(C2=NN(C(=O)CCC(=O)O)C(c3ccc(OC)cc3)C2)cc1 (centres undefined) | 101.8 | x | x | -12.3
47 | CCC(C(=O)N1CCCC1)n1cnc2nc3c(cc2c1=O)CCCC3 (centres undefined) | 107.3 | x | x | -5.3
48 | CC(=O)Nc1cc(-c2nc3cc(Cl)ccc3o2)ccc1C | 102.2 | 87.9 | 88.8 | -6.2
49 | Cc1nn(-c2ccccc2)c2c1C(C(=O)NC1CCCC1)N(Cc1cccnc1)C(=O)CS2 (centres undefined) | 100.7 | x | x | -1.6
50 | CCOc1ccc(N(Cc2nc3nc(C)cc(=O)n3[nH]2)S(C)(=O)=O)cc1 | 103.2 | x | x | -6.5

Gathered by group, the compounds so far with an NH in an aromatic ring
item | Structure | GIV-Gai inh | Sa growth 42C | Sa growth 42C second temp | HCMV NEC inh
3 | CCCSc1nc2c(cnn2-c2ccc(F)cc2)c(=O)[nH]1 | 106.6 | x | x | 13.8
9 | NC(=O)CSc1nc(N)cc(=O)[nH]1 | 101.0 | 93.7 | 85.1 | -4.5
20 | COc1cc(Cl)c(C)cc1NC(=O)CSc1nc2c(c(=O)[nH]1)CCC2 | 104.1 | 102.9 | 90.1 | -12.9
26 | Cc1ccc(C(=O)c2sc3[nH]c(=O)c(C(=O)O)cc3c2N)cc1 | 103.1 | 92.1 | 91.2 | -71.7
32 | CCCC(CCC)n1[nH]c(=O)c2c(C)cc(C)nc21 | 99.3 | 122.6 | 84.3 | -9.5
50 | CCOc1ccc(N(Cc2nc3nc(C)cc(=O)n3[nH]2)S(C)(=O)=O)cc1 | 103.2 | x | x | -6.5

The list continues.
item | Structure | GIV-Gai inh | Sa growth 42C | Sa growth 42C second temp | HCMV NEC inh
51 | O=C(CSc1nccn1Cc1ccco1)Nc1cc(C(F)(F)F)ccc1Cl | 98.6 | 111.1 | 96.0 | x
52 | CCN(C(=O)CN1CCCCC1)c1c(N)n(Cc2ccccc2)c(=O)[nH]c1=O | x | 82.5 | 96.5 | 3.9
53 | COc1ccc2c(c1C)OC(C)(C)CC2=O | 106.7 | 81.9 | 86.1 | -30.8
54 | c1ccc(OCCOc2ncnc3ccccc23)cc1 | x | 93.8 | 94.4 | -9.1
55 | Cc1cc(C)n2c(SC(CNS(=O)(=O)c3ccccc3)c3ccccc3)nnc2n1 (centres undefined) | 99.3 | 105.0 | 81.3 | x
56 | COc1ccc(N(Cc2cccs2)C(=O)c2ccccc2C)cc1 | 103.8 | 99.4 | 82.0 | -30.8
57 | CC(CNC(=O)c1ccc(Nc2nc3ccccc3n3nnnc23)cc1)c1ccccc1 (centres undefined) | 110.2 | 124.0 | 91.4 | -2.5
58 | c1ccc(COCC(CSc2ccccc2)OCc2ccccc2)cc1 (centres undefined) | x | 73.4 | 76.6 | 4.3
59 | COc1ccc(OC)c(-c2cc(C(=O)NCCc3ccccc3)c3c(-c4ccc(C)cc4)[nH]nc3n2)c1 | 102.9 | 81.4 | 97.3 | x
60 | CCCCC(C)(O)C/C=C/[C@H]1[C@H](O)CC(=O)[C@@H]1CCCCCCC(=O)OC (some centres undefined) | 101.3 | 89.9 | 87.6 | -38.2&-21.8&-21.8
61 | CCc1ccccc1NC(=O)c1cnn(-c2ccc(F)cc2)c1C1CCNCC1 | 101.0 | 89.8 | 92.8 | x
62 | O=C(CC1SC(=O)N(c2ccccc2)C1=O)Nc1cccc(O)c1 (centres undefined) | 106.7 | x | x | -38.7
63 | CC1C(=O)Nc2ccc(-c3csc(N)n3)cc21 (centres undefined) | x | 113.8 | 78.5 | -43.1
64 | CCCN(CCC)S(=O)(=O)c1ccc(C(=O)NC2=C(C(=O)OC)SCC2)cc1 | 102.0 | 85.4 | 83.3 | -25.7
65 | O=C1CCc2cc(S(=O)(=O)NCc3ccccc3)cc3c2N1CCC3 | 99.5 | 126.5 | 89.1 | 16.3
66 | CCS(=O)(=O)/N=C(\N)c1ccccc1 | x | 88.8 | 96.9 | 6.8
67 | Cc1nn(-c2cc(N3CCOCC3)ccc2N)c(=O)c2ccccc12 | 102.8 | 106.4 | 80.7 | -11.0
68 | O=C(C1CC1)N1CCc2cc(S(=O)(=O)NCCCN3CCCCC3)ccc21 | 102.4 | 92.4 | 94.2 | x
69 | CCc1ccc(-c2nn(CC(=O)NCc3ccccc3)c3c2cnc2ccc(C)cc23)cc1 | 97.4 | 80.7 | 89.8 | x
70 | O=C(CSc1ccccc1)Nc1ccc2nc(SCC(=O)N3CCCC3)sc2c1 | 102.6 | x | x | -11.7
71 | COc1ccc([N+](=O)[O-])cc1N1C(=O)C2C3C=CC(O3)C2C1=O (centres undefined) | 102.2 | x | x | -47.8
72 | CCC(CC)C(=O)Nc1c[nH]c(=O)[nH]c1=O | 99.6 | 84.1 | 87.6 | -20.3
73 | Cc1c(CC(=O)O)c(=O)oc2c(O)c(O)ccc12 | x | 85.7 | 77.2 | -37.0
74 | CC1CN(c2ccc(NC(=S)N3CCSCC3)cc2)CC(C)O1 (centres undefined) | 101.0 | 91.3 | 92.0 | -24.6
75 | CC(=O)Nc1ccc(Oc2ncnc3sccc23)cc1 | x | 86.3 | 79.0 | -28.0

Other results.
item | Structure | GIV-Gai inh | Sa growth 42C | Sa growth 42C second temp | HCMV NEC inh
76 | CCOc1ccc(N(CC(=O)Nc2ccc(F)c(Cl)c2)S(=O)(=O)c2ccc(SC)cc2)cc1 | 98.2 | x | x | -20.1
77 | COC(=O)c1ccc(-c2ccc(/C=C3/C(=O)N(c4ccc(C)c(Cl)c4)N=C3C)o2)cc1 | 102.9 | x | x | -3.4
78 | COc1ccccc1N1CCN(C(=O)C2CCN(S(=O)(=O)c3cccs3)CC2)CC1 | 107.1 | 97.9 | 89.8 | 10.0
79 | COc1ccc(NC(=O)c2nnc(C(=O)N3CCC(C)CC3)s2)cc1 | 119.7 | x | x | -7.0
80 | COC(=O)c1cccnc1NC(=S)NC(C)C | 100.7 | 126.9 | 90.0 | x
81 | O=C(Cn1nc2c(cc1=O)CCCC2)NCc1ccc(Cl)cc1 | 104.2 | 91.3 | 85.6 | x
82 | COc1ccc(NC(=O)COc2nc(-c3ccc(OC)cc3)nc3sc4c(c23)CCCC4)cc1 | 101.4 | x | x | -31.7
83 | Cc1ccc2c(N)c(C(=O)c3ccc4c(c3)OCCO4)sc2n1 | 99.4 | 105.2 | 97.7 | -47.3
84 | COC(=O)c1ccccc1NC(=O)c1cc2c(COC(C)=O)cnc(C)c2oc1=O | 103.3 | x | x | -32.0
85 | CCOC(=O)C1=C(C)N=c2s/c(=C\c3cc(OC)ccc3OC)c(=O)n2C1c1ccc(SC)cc1 (centres undefined) | 112.2 | x | x | 12.8
86 | CCc1nn(CC(=O)NCCCN(CC(C)C)CC(C)C)c(=O)c2cc3sc(C)cc3n12 | 102.7 | 98.5 | 86.4 | 7.6
87 | CCCC(C(=O)NCc1ccccn1)N1Cc2ccccc2C1=O (centres undefined) | 99.6 | 99.7 | 107.6 | 7.5

2 compounds picked at random from the list so far, as already listed:
item | Structure | GIV-Gai inh | Sa growth 42C | Sa growth 42C second temp | HCMV NEC inh
85 | CCOC(=O)C1=C(C)N=c2s/c(=C\c3cc(OC)ccc3OC)c(=O)n2C1c1ccc(SC)cc1 (centres undefined) | 112.2 | x | x | 12.8
86 | CCc1nn(CC(=O)NCCCN(CC(C)C)CC(C)C)c(=O)c2cc3sc(C)cc3n12 | 102.7 | 98.5 | 86.4 | 7.6

Screens as filed in PubChem BioAssay.
